# Source: PubChem
# GCN5L2 inh = GCN5L2 (KAT2A) acetyltransferase inhibition; Q92830; GCN5L2 HAT assay, ThioGlo1 CoA-SH fluorescence; Potency, µM (top dose mostly 58.9 µM), inactives show at the highest dose activity change, negative = inhibition, usual class: inhibitors; actives 0.21% (n = 390,000)
#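 Titration-based screen in which CoA formation is detected via maleimide probe ThioGlo1 (50uM) turning fluorescent on thiol reaction; substrates H3(1-25) 75uM and acetyl-CoA 70uM, GCN5L2 20nM, 20 min incubation at room temperature.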
# FEN1 inh = inhibitors of human flap endonuclease 1; P39748; Recombinant FEN1 flap cleavage, fluorescence, 15 min; Potency, µM (series often up to 114 µM), without a hit: at the top dose activity change, negative = inhibition, hits mostly inhibitors; actives 0.35% (n = 390,000); AID 588795; note: nearly all actives have a fitted effect of over 65% in size
# Target sequence (P39748 whole entry, looked up): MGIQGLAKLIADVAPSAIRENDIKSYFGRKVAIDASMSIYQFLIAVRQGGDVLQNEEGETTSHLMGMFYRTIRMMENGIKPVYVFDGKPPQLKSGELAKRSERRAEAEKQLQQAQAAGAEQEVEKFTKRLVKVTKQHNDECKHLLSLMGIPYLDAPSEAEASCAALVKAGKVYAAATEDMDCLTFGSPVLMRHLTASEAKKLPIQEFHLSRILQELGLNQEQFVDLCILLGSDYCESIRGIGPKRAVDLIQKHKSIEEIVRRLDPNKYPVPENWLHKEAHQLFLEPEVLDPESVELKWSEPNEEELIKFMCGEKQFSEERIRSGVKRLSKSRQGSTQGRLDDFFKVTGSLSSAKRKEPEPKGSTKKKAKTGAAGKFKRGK
#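 Reaction started by adding substrate (50 nM final) to 10 nM enzyme after 15 min room-temperature compound preincubation. Reads at 0 and 15 min, with data normalized and fitted to a four-parameter Hill equation.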
# * marks the source's active call; other numbers are inactive results; u = inconclusive; x = not tested or not shown; & = joins results of further samples; [ ] = remark or other dose. Calls come from the whole dose curve; as a rule, active = well fitted curve in the direction sought with a large enough effect; inconclusive = small, poorly fitted or top-dose-only effect, or another doubt; inactive = no such curve, though single readings can be large; an effect the other way counts as inactive or inconclusive. % is set by controls: 0 for no effect and ±100 for the full control effect; potency is the fitted concentration of half-maximal effect. These rows are one share of the data; most or all hits stand in other tables.
SMILES,GCN5L2 inh,FEN1 inh
CSc1nnc(-c2cnccn2)n1CCCN1CCCC1=O,-4%,22%
COc1ccc(C2=Nc3ccccc3N(CC(=O)Nc3cccc(C(C)=O)c3)C(=O)C2)cc1,-3%,3%
COc1cccc(-c2nnc(NC(=O)c3ccc(S(=O)(=O)N4CC(C)OC(C)C4)cc3)o2)c1 (configuration not stated),-2%[0.501 µM],-6%
C/C=C(/C)C(=O)OC1C(OC(C)=O)[C@@]2(CO)C(O)C[C@@]3(C)C(=CCC4[C@@]5(C)CCC(OC6OC(C(=O)O)[C@@H](O[C@@H]7OC(CO)C(O)C(O)C7O)C(O)[C@H]6O[C@@H]6OC(CO)C(O)C(O)C6O)[C@](C)(CO)C5CC[C@@]43C)C2CC1(C)C (some centres not stated),3%,x
CSc1ccc(/C=C(/NC(=O)c2ccc(C)cc2)C(=O)Nc2cccc(F)c2)cc1,-4%,3%
CC(C)NC(=O)COC(=O)c1ccc(Cl)c(S(=O)(=O)N2CCCC2)c1,-1%,-9%
O=C(CC1C(=O)OCCN1Cc1ccccc1)Nc1cccc(C(F)(F)F)c1 (configuration not stated),-12%,-2%
O=S(=O)(Nc1cccc(-n2cnnn2)c1)c1ccc(F)cc1,-1%,20%
CN1CCN(c2oc(-c3ccccc3F)nc2S(=O)(=O)c2ccc(Cl)cc2)CC1,u,-11%
COc1ccc(OC)c(C2C(C(=O)Nc3ccc(F)cc3)=C(C)Nc3nc(CCCO)nn32)c1 (configuration not stated),0%,13%
COc1ccccc1Nc1nnc(Cc2ccccc2)c(=O)[nH]1,-6%,13%
COc1ccc(CCNC(=O)CN2C(=O)COc3ccc(S(=O)(=O)N4CCOCC4)cc32)c(OC)c1,-19%,15%
COc1ccc(OC)c(NC(=O)C(CCS(C)(=O)=O)NC(C)=O)c1 (configuration not stated),-4%,-2%
CCOC(=O)Cc1csc(NC(=O)COc2ccc3c(c2)CCC3)n1,-17%,-3%
CC(Sc1nnc(C2CC2)n1C1CC1)C(=O)Nc1cccc(S(=O)(=O)N2CCOCC2)c1 (configuration not stated),-4%,18%
CCn1c(CC(=O)Nc2cccc(OC)c2)nnc1SCC(=O)N1CCN(c2ccccc2)CC1,-21%,-3%
C/C(=N\NC(=O)c1ccc(C)cc1C)c1ccc2c(c1)OCO2,1%,1%
Nc1nc2c([N+](=O)[O-])cccc2s1,-7%,18%
Cc1cccc(NC(=O)C2(c3ccc([N+](=O)[O-])cc3)CCCC2)c1,0%,-3%
CCN(CC)S(=O)(=O)c1ccc(N2CC(C(=O)NCc3ccc4c(c3)OCO4)CC2=O)cc1 (configuration not stated),-2%,-6%
COC(=O)/C(=C\c1ccc2c(c1)c1ccccc1n2C)NC(=O)c1ccccc1,-10%,-13%
COC(=O)C1=C(CN2CCCc3ccccc32)NC(=O)NC1c1ccc(F)cc1 (configuration not stated),-6%,-1%
O=C(NCc1cccc(F)c1)C1CCC(=O)N(CCc2cccc(F)c2)C1 (configuration not stated),-18%,11%
CC(=O)Nc1cccc(NC(=O)C(F)(F)F)c1,-13%,17%
CN(C1CCCCC1)S(=O)(=O)c1ccc(SCC(=O)C(C)(C)C)nc1,-7%,1%
COCCNC(=O)COC(=O)CSCc1nc2ccccc2s1,-4%,-7%
Cc1nn(CC(=O)O)c(=O)c2cc3cc(F)ccc3n12,-7%,42%[activator]
CCOC(=O)CN1C(=O)S/C(=C/c2ccc(C)o2)C1=O,-10%,0%
CCCCNC(=O)c1cc(-c2ccc(OC)c(OC)c2)on1,-8%,-17%
COc1cc(NC(=O)c2ccc(N3CCCC3=O)cc2)cc(OC)c1,0%,-3%
COc1c2ccoc2cc2oc(=O)ccc12,-2%,-17%
C=CCc1c(C)nc(-c2ccccc2)nc1N/N=C(\C)c1ccc(N)cc1,-7%,-2%
COc1ccccc1-n1c(SCC(N)=O)nc2sc3c(c2c1=O)CCC3,-7%,-1%
OC(CNCC1CCCO1)COc1ccc(OCC(O)CNCC2CCCO2)cc1 (configuration not stated),-4%,-12%
CCN(CC)C(=O)c1cnn(-c2ccccc2)c1NC(=O)c1ccccc1F,-4%,3%
O=C(CSc1oc(-c2ccco2)nc1S(=O)(=O)c1ccc(Cl)cc1)c1ccccc1,-8%,14%
Cc1noc(Cn2c(=O)c3cc4c(cc3n(CC(=O)Nc3ccc(C(C)C)cc3)c2=O)OCO4)n1,-19%,-18%
CCOC(=O)CNC(=O)c1c(C)nn(C)c1Cl,-4%,0%
CCC(C(=O)NCc1cc(OC)ccc1OC)n1nc(C)c2sc3ccccc3c2c1=O (configuration not stated),-8%,-4%
CCCNC(=O)C1CC(=O)N(c2ccc(OCC(=O)Nc3cc(C)cc(C)c3)cc2)C1 (configuration not stated),-4%,2%
N#Cc1cnc(NN)nc1,-1%,0%
CC(C)N(C(=O)[C@H]1C[C@H](CC(=O)NCc2cccc(C(F)(F)F)c2)C(=O)N2CCc3c([nH]c4ccc(Cl)cc34)[C@]12C)C(C)C,1%,-8%
O=C(N/N=C/c1cc(Br)cs1)c1ccc2c(c1)OCCO2,u,-4%
COc1ccc(CNC(=O)CN(C(=O)c2csnn2)c2ccc(F)cc2)cc1,1%,2%
Cc1ccc(C2c3[nH]c4ccccc4c3CCN2C(=O)c2ccccc2Br)cc1 (configuration not stated),-11%,2%
COc1ccc(N/C(C)=C2/C(=O)C(=O)N(CCO)C2c2ccc([N+](=O)[O-])cc2)cc1 (configuration not stated),-10%,0%
O=C1OCCN1CCNCc1cn(-c2ccc(F)cc2)nc1-c1ccccc1Cl,0%,-10%
Cc1cc(=O)n2nc(N3CCCC(C(=O)NC4CCCCC4C)C3)sc2n1 (configuration not stated),-3%,2%
O=C(CSc1nnc(-c2ccncc2)o1)Nc1cccc(F)c1,-3%,13%
COCc1cc(CNC(=O)C2CCC(=O)N(Cc3ccccc3OC)C2)[nH]n1 (configuration not stated),-4%,19%
CCc1ccc(N(C)S(=O)(=O)c2ccc3[nH]cc(C(=O)NCCN4CCOCC4)c(=O)c3c2)cc1,0%,9%
COc1cccc(-n2c(CN3CCN(c4ccccn4)CC3)nc3ccc([N+](=O)[O-])cc3c2=O)c1,-16%,3%
COc1cccc(NC(=O)NC2CCN(Cc3nnnn3Cc3ccc(F)cc3)CC2)c1,-4%,-14%
Cc1cccc(CN2CCN(Cc3cccc4nonc34)CC2CCO)n1 (configuration not stated),2%,-8%
O=C(/C=C/c1cccc([N+](=O)[O-])c1)NCCN1CCOCC1,1%,-4%
CC(NC(=S)NNS(=O)(=O)c1ccc(C(C)(C)C)cc1)c1ccccc1 (configuration not stated),1%,-2%
CCCCOC(=O)C1=C(C)NC2(O)c3ccccc3C(=O)C12O (configuration not stated),-10%,0%
CCCC(C)CO (configuration not stated),-6%,13%
COc1ccc(NC(=S)NNC(=O)c2cccnc2)cc1OC,-14%,15%
CCCN1C(=O)N(c2cccc(C)c2)C(C)(O)CC1(C)C (configuration not stated),0%,-12%

# 3 compounds out of the list above, sorted by their value in GCN5L2 inh, rising.
Structure,GCN5L2 inh
COc1cccc(-n2c(CN3CCN(c4ccccn4)CC3)nc3ccc([N+](=O)[O-])cc3c2=O)c1,-16%
CCCC(C)CO (configuration not stated),-6%
O=C(CSc1nnc(-c2ccncc2)o1)Nc1cccc(F)c1,-3%

# 22 compounds out of the list, sorted by molar mass, lowest first.
SMILES,GCN5L2 inh,FEN1 inh
CCCC(C)CO (configuration not stated),-6%,13%
Nc1nc2c([N+](=O)[O-])cccc2s1,-7%,18%
CCCN1C(=O)N(c2cccc(C)c2)C(C)(O)CC1(C)C (configuration not stated),0%,-12%
CCCCNC(=O)c1cc(-c2ccc(OC)c(OC)c2)on1,-8%,-17%
COc1ccccc1Nc1nnc(Cc2ccccc2)c(=O)[nH]1,-6%,13%
CCCCOC(=O)C1=C(C)NC2(O)c3ccccc3C(=O)C12O (configuration not stated),-10%,0%
CSc1nnc(-c2cnccn2)n1CCCN1CCCC1=O,-4%,22%
O=C(CSc1nnc(-c2ccncc2)o1)Nc1cccc(F)c1,-3%,13%
COc1ccc(NC(=S)NNC(=O)c2cccnc2)cc1OC,-14%,15%
COc1ccc(OC)c(NC(=O)C(CCS(C)(=O)=O)NC(C)=O)c1 (configuration not stated),-4%,-2%
CCN(CC)C(=O)c1cnn(-c2ccccc2)c1NC(=O)c1ccccc1F,-4%,3%
COc1ccccc1-n1c(SCC(N)=O)nc2sc3c(c2c1=O)CCC3,-7%,-1%
CC(C)NC(=O)COC(=O)c1ccc(Cl)c(S(=O)(=O)N2CCCC2)c1,-1%,-9%
O=C(CC1C(=O)OCCN1Cc1ccccc1)Nc1cccc(C(F)(F)F)c1 (configuration not stated),-12%,-2%
CCCNC(=O)C1CC(=O)N(c2ccc(OCC(=O)Nc3cc(C)cc(C)c3)cc2)C1 (configuration not stated),-4%,2%
OC(CNCC1CCCO1)COc1ccc(OCC(O)CNCC2CCCO2)cc1 (configuration not stated),-4%,-12%
CCC(C(=O)NCc1cc(OC)ccc1OC)n1nc(C)c2sc3ccccc3c2c1=O (configuration not stated),-8%,-4%
O=C(CSc1oc(-c2ccco2)nc1S(=O)(=O)c1ccc(Cl)cc1)c1ccccc1,-8%,14%
COc1ccc(OC)c(C2C(C(=O)Nc3ccc(F)cc3)=C(C)Nc3nc(CCCO)nn32)c1 (configuration not stated),0%,13%
COc1cccc(-n2c(CN3CCN(c4ccccn4)CC3)nc3ccc([N+](=O)[O-])cc3c2=O)c1,-16%,3%
CCN(CC)S(=O)(=O)c1ccc(N2CC(C(=O)NCc3ccc4c(c3)OCO4)CC2=O)cc1 (configuration not stated),-2%,-6%
Cc1noc(Cn2c(=O)c3cc4c(cc3n(CC(=O)Nc3ccc(C(C)C)cc3)c2=O)OCO4)n1,-19%,-18%

# The list goes on:
SMILES,GCN5L2 inh,FEN1 inh
COC(=O)c1sc(N2CCN(c3ccc(Cl)cc3)CC2)nc1N,-14%,2%
O=C(c1cnn(C(=O)COc2ccccc2F)c1)c1cc(F)ccc1O,-8%,0%
COc1ccc(C(=O)Nc2ccc(Cl)cn2)cc1Cl,-2%,-11%
Cc1ccc(NC(=O)CSCC(=O)NC2CCCCC2)cc1,-4%,u
COc1ccc(NC(=O)c2cccs2)cc1O,-4%,6%
COc1ccc(C(=O)/C=C/Nc2ccc([N+](=O)[O-])cc2C)cc1OC,-4%,9%
COc1cccc(Cn2c(SCC(=O)N(C)c3ccccc3)nc3ccccc32)c1,2%,-16%
CC(=O)c1ccc(CCCC(=O)O)cc1,-2%,1%
COCCNC(=S)NC(=O)c1ccc(C(C)(C)C)cc1,-7%,-3%
O=C(/C=C/c1ccccc1[N+](=O)[O-])NCc1ccccc1Cl,-3%,11%
CN1CC(=O)N(CC(=O)Nc2ccc(F)cc2)c2ccccc2C1=O,-5%,27%
CCOC(=O)CN1CC23C=CC(O2)C(C(=O)NCc2ccc(F)cc2)C3C1=O (configuration not stated),-13%,-6%
CC(C)n1nc(C(=O)Nc2ccccc2N2CCOCC2)c2ccccc2c1=O,1%,-1%
CNS(=O)(=O)c1ccc(NC(=O)c2cnn3c(C(F)F)cc(-c4ccccc4)nc23)cc1,-8%&3%,-14%&-2%
Cc1occc1-c1nnc(SC(C)C(=O)Nc2ccccc2F)o1 (configuration not stated),-4%,-1%
Cc1cccc(C)c1OCC(=O)OCC(=O)c1ccc2c(c1)NC(=O)CO2,-9%,2%
N/C(Cc1ccc([N+](=O)[O-])cc1)=N\OC(=O)c1ccco1,-1%,8%
Cc1cc(Nc2ccc(C)c(Cl)c2)nc(N2CCOCC2)n1,2%,-22%
CCOc1ccc2nc(NCCCNS(=O)(=O)c3ccccc3)c(C#N)cc2c1,-7%,0%
O=C(Nc1ccc(NC(=O)c2ccccc2Cl)cc1)c1cccnc1,-14%,10%
COc1cccc(=O)c2c(C)oc(C)c12,-2%,-9%
Cc1cccnc1NC(=O)CNC(=O)c1sc2ccccc2c1Cl,-3%,-3%
CCOc1ccc(/C=C2\SC(=S)N(Nc3ccccc3)C2=O)cc1OC,-1%,2%
CCN(C(=O)COC(=O)CNC(=O)c1ccc2ccccc2c1)C1CCS(=O)(=O)C1 (configuration not stated),-7%,-5%
CC1c2ccccc2N(NC(=O)Cc2ccccc2)C1C (configuration not stated),-8%,-7%
CCOC(=O)c1ccc(NC(=O)COc2ccc(CNC3CCCCC3)cc2OC)cc1,-8%,1%
CC(C)(C)c1ccc(C(=O)NCc2nnc(SCC(=O)NC3CCCC3)o2)cc1,-1%,0%
COc1ccccc1-c1nc(SCC(=O)NCc2ccco2)c2c(=O)n(C)c(=O)n(C)c2n1,2%,-17%
c1ccc2c(c1)nc(N1CCCCC1)c1ccccc12,-3%,-17%
COCC(=O)N1CCN(c2ccc([N+](=O)[O-])cc2)CC1,-1%,2%
CSc1ccc(CNC(=O)c2sc3ncnc(N(C)C4CCCCC4)c3c2C)cc1,-4%,-17%
O=C(Nc1ccccc1)[C@@H]1CCCN1S(=O)(=O)c1ccc(Cl)cc1,-3%,1%
COc1cccc(/C=C/C(=O)OCC(=O)Nc2cccc(S(=O)(=O)N3CCOCC3)c2)c1OC,-3%,0%
O/N=C/c1ccc(OCc2ccccc2F)c(Cl)c1,-3%,-21%
Cc1cc(=O)n2nc(N3CCC(C(=O)N4CCN(c5ccccc5)CC4)CC3)sc2n1,-5%,1%
O=C(CSc1nc2ccccc2[nH]1)N1CCCCC1,1%,12%
Cc1c(NC(=O)COc2ccc3ccccc3c2)c(=O)n(-c2ccccc2)n1C,2%,-10%
COc1ccc(OCC(=O)Nc2ccc(-c3nc4cc(C)c(C)cc4o3)cc2)cc1,-5%,-14%
O=C(CNc1cccc(S(=O)(=O)N2CCCCC2)c1)Nc1ccccc1F,-6%,-17%
